Assay outcomes deposited in PubChem BioAssay by several laboratories.
UCH37 DUB inh: inhibitors of human UCH37 deubiquitinase, primary screen, biochemical, Ub-AMC cleavage, fluorescence; Ubiquitin carboxyl-terminal hydrolase isozyme L5 (Homo sapiens), Q9Y5K5; purified proteasome/UCH37; inhibition, % (test concentration not listed); 0.33% of 330,000 active; AID 588478, 2011;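 active = mean of two replicates above 20%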;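 note: 0% = compound-free wells with enzyme and 100% = wells lacking proteasome; stock transfer was 100 nL into about 20 µL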
Target sequence (Q9Y5K5 whole entry, looked up): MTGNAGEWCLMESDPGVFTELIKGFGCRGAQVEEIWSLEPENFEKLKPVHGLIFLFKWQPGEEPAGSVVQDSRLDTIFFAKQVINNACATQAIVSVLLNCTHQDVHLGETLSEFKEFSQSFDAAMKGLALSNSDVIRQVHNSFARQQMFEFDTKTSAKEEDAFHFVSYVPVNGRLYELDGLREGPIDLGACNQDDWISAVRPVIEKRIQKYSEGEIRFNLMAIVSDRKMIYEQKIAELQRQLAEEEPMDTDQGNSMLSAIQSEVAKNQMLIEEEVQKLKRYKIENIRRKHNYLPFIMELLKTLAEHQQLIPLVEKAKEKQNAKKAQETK
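system = Proteasome-associated human UCH37 deubiquitinase | amount = 0.15 nM proteasome as dispensed | medium = pH 7.4 Tris-HCl (50 mM) with ovalbumin, ATP-MgCl2, DTT | incubation = 30 min preincubation with enzyme, 25 min cleavage at room temperature | detection = AMC fluorescence 355/460 nm | read-out basis = percent inhibition | controls = no-proteasome and no-compound wells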
E coli growth: E. coli growth inhibition, primary screen, OD600 | Escherichia coli growth, 23 h; hits give low values | OD600 absorbance (no concentration beside the values) | 0.21% of 330,000 active | AID 1053175, 2014;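 active = OD600 absorbance below the run mean of sample wells minus 3.6 SD, in any replicate, cut at about 0.56 in these data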;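 note: stock transfer was 300 nL into about 60 µL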
HNF4A DNA FP: change in binding of human HNF4A to DNA, primary screen, biochemical, fluorescence polarization, FITC-DNA; 0.3% of 360,000 active; activity change, % at 10 µM; 1 h; Hepatocyte nuclear factor 4-alpha (Homo sapiens), P41235; in the data active = activity change above about 30%, passing the limit was not always enough;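 note: controls were the assay level and a saturating level of protein; the project sought stronger binding though the title names inhibitors; some compounds called inactive have numbers as strong as hits; positive values seem to mean higher polarization but the record does not say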
AF4-AF9 inh: inhibitors of AF4 peptide binding to AF9, primary screen, biochemical, AlphaScreen, biotin-AF4 peptide, FLAG-AF9, single point | 0.47% of 350,000 active | inhibition, % at 10 µM;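 active = every replicate reaching a set inhibition limit, whatever the replicate mean, cut at about 25% in these data; inconclusive = mean inhibition reaches that limit but some replicates miss it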;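 note: 0% = plate neutral control median and 100% = total signal loss; the record names both 10 and 1 µM as test concentration; the first replicate is given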
Target sequence (P42568 whole entry, looked up): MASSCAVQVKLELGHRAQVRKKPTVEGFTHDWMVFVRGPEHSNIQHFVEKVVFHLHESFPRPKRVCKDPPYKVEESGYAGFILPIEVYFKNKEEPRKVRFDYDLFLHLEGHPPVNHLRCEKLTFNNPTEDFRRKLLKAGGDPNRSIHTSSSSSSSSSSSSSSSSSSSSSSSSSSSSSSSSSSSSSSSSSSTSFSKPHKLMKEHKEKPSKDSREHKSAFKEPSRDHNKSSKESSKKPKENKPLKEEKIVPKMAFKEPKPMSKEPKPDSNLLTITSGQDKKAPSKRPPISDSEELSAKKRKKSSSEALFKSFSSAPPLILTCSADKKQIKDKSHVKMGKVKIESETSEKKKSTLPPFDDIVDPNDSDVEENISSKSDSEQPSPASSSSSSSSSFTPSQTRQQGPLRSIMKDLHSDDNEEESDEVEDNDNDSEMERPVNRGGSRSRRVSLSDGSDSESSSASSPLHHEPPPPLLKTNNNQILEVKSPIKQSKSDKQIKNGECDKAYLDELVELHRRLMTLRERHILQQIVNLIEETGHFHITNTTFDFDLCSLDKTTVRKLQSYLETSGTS
RanGTP-Impb inh: inhibitors of RanGTP-importin-beta interaction, primary screen, biochemical, FRET, CFP-Ran, YFP-importin-beta, homogeneous. Ran GTPase (GTP-bound) - importin-beta complex. cell-free CFP-Ran/YFP-importin-beta FRET ratio. inhibition, % (no concentration beside the values). 1.1% of 300,000 active. AID 2216, 2009;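 active = most replicates above 15%; inconclusive = exactly half above 15%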;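 note: 0% = DMSO wells and 100% = Ran loaded with GDP instead of GTP; wells of about 40 µL received 100 nL stock; the first replicate is given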
FGF22 binding: binders of human FGF22 protein, primary screen, FGF22 synaptogenesis inhibitor project, biophysical, thermal shift, single point; Fibroblast growth factor 22 (Homo sapiens), Q9HCT0; recombinant FGF22 thermal shift, SYPRO orange fluorescence; percent of sucrose octasulfate shift, DMSO zero; calls only at 9.99 µM; 1.5% of 340,000 active; AID 651658, 2012;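 active = melting point raised past a set limit in the mean and every replicate; inconclusive = no clear call; three in four hits are not shown here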
Target sequence (Q9HCT0 whole entry, looked up): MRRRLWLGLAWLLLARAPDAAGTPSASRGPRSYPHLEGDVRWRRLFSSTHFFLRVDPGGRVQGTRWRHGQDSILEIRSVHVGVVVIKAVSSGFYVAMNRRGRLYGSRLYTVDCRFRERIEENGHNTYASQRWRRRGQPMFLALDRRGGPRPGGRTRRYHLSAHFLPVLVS
Vif A3G: inhibitors of Vif binding to APOBEC3G peptide, primary screen, biochemical, TR-FRET, GST-Vif 1-94, biotin-A3G peptide, dose response retest (AID 1117319); Virion infectivity factor (Human immunodeficiency virus type 1 group M subtype B (isolate …; inhibition, %; hits with a dose series show IC50 in µM; TR-FRET GST-Vif / biotin-A3G peptide binding; higher % means a stronger effect; test concentration not given here; strong numbers were not always called active; 0.57% of 260,000 active;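 active = above the screen mean plus three standard deviations and confirmed in dose response; inconclusive = results disagree or hit not tested in dose response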;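 note: Vif residues 1-94 fused to GST binding biotinylated APOBEC3G peptide 110-148; 0% = full assay without inhibitor and 100% = GST in place of GST-Vif; retest series ran down from 100 µM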
* hit, by the source's call; i = inactive; ? = inconclusive; nt = not tested or not shown; + = active, no number. This is a subset, so the mix of outcomes need not match the whole.

SMILES	UCH37 DUB inh	E coli growth	HNF4A DNA FP	AF4-AF9 inh	RanGTP-Impb inh	FGF22 binding	Vif A3G
Cc1ccc(OCC(=O)NNC(=O)[C@@H]2CCCC[C@@H]2C(=O)O)c(Br)c1	4.1	0.73	2.9	-1.6	nt	i	-1%
CC1Cc2cc(S(=O)(=O)CCC(=O)N3CCN(c4ccccc4)CC3)ccc2N1C(=O)C1CC1 (stereo not given)	6.3	0.68	1.2	-6.9	0.2	i	0%
Cc1ccc2c(c1)N(C(=O)CCC(=O)N1CCN(c3ccccn3)CC1)CCO2	-0.1	0.71	-2.2	-5.0	-5.8	i	nt
CSCCC1NC2(C(=O)Nc3c2ccc(Cl)c3C)[C@@H]2C(=O)N(C3CCCC3)C(=O)[C@H]12 (stereo not given in full)	0.6	0.71	-5.3	nt	nt	nt	17%
O=C(NCCc1ccccc1Cl)c1ccc2nc3ccccc3c(=O)n2c1	-326	0.61	1.7	-0.4	7.3	i	-11%
CC(=O)Nc1cccc(NC(=O)c2cc(-c3ccccn3)nc3ccc(Cl)cc23)c1	-1.8	0.74	3.8	-0.7	-2.9	i	nt
O=S(=O)(c1cc(Cl)ccc1Cl)n1cccn1	0.3	0.66	-0.8	-1.1	3.4	i	13%
CCN(CC)S(=O)(=O)c1ccc(-c2nnc(SCC(=O)Nc3cc(OC)cc(OC)c3)o2)cc1	3.7	0.72	-1.5	nt	-0.9	nt	7%
O=S1(=O)N=C(Nc2ccc(N3CCOCC3)cc2)c2ccccc21	9.3	0.68	-0.1	nt	nt	nt	24%
CCOc1cc(/C=C2\N=C(C)OC2=O)cc(Cl)c1OCC(=O)OC	3.3	0.67	2.2	-1.3	-3.6	i	nt
O=C(Nc1ccc([N+](=O)[O-])cc1Cl)c1cccc([N+](=O)[O-])c1	nt	nt	-4.7	-1.7	nt	i	nt
COCCn1c(SCC(=O)NCc2cccs2)nnc1-c1ccc(OC)cc1	-0.7	0.69	-0.5	-16	4.8	i	13%
CC1CCCC(C)N1C(=S)NCc1ccco1 (stereo not given)	2.1	0.7	-2.3	-1.1	4.2	i	nt
O=C1[C@H]2[C@@H](c3ccc(Cl)cc3)N3C(=O)N(c4cccc(F)c4)C(=O)[C@@]3(Cc3ccccc3)[C@H]2C(=O)N1C1CCCCC1	0.0	nt	-2.3	1.4	7.1	i	nt
N/C(Cc1ccc(Cl)cc1Cl)=N\OC(=O)c1ccccc1	5.1	0.7	3.1	-1.1	0.3	i	-14%
Nc1nnc(SCC(=O)OCC(=O)NC2CCCCC2)s1	-3.1	0.64	1.3	-1.6	0.4	i	7%
O=C(CCN1CCc2ccccc2C1)Nc1ccccc1	0.3	0.67	-1.1	nt	-2.4	nt	5%
C#CCNC(=O)C1=C[C@@H](c2ccc(Br)cc2)[C@H](CCCO)[C@@H](OCC)O1	24*	nt	3.5	-0.6	0.1	i	4%
Cc1ccc([C@H]2N[C@]3(CCCN(CC4CCCCC4)C3=O)[C@H]3C(=O)N(Cc4ccccc4)C(=O)[C@@H]23)cc1	nt	nt	-1.3	1.1	nt	i	0%
CC(O)c1nc2ccccc2n1CC(=O)Nc1ccc(F)cc1Cl (stereo not given)	-3.6	0.61	-3.6	-0.9	1.0	i	-5%
Cc1onc(-c2ccccc2Cl)c1C(=O)OCN1C(=O)c2ccccc2C1=O	-0.7	0.69	-0.3	nt	2.8	nt	-4%
O=C(NCC(c1ccco1)N1CCCCC1)c1ccc2c(c1)S(=O)(=O)c1ccccc1C2=O (stereo not given)	1.2	0.67	-4.8	9.8	-2.3	i	nt
Cn1nccc1NC(=O)Nc1ccc(OC(F)(F)F)cc1	nt	nt	2.0	-2.7	-1.4	i	-8%
Cc1ccc(NC(=S)N2CCN(S(=O)(=O)c3ccccc3)CC2)cc1C	4.8	0.69	-2.6	-0.2	nt	i	nt
O=C(N/N=C/c1ccc([N+](=O)[O-])cc1)c1cc(C2CC2)[nH]n1	nt	nt	-1.1	-2.4	-2.0	i	-1%
SMILES	UCH37 DUB inh	E coli growth	HNF4A DNA FP	AF4-AF9 inh	RanGTP-Impb inh	FGF22 binding	Vif A3G
Cc1ccc(-n2cnc3scc(-c4cccs4)c3c2=O)cc1	-2.5	0.68	5.1	nt	2.7	nt	-4%
CC(C)C(c1nnnn1C1CCCC1)N1CCOCC1 (stereo not given)	6.1	0.72	-2.9	nt	-0.9	nt	-2%
Cc1ccc(C(=O)N/N=C/c2ccoc2)cc1C	nt	nt	0.3	-0.4	1.8	i	nt
COc1ccc(-n2nc(C(=O)NCC(=O)NCCCN3CCOCC3)c3ccccc3c2=O)c(OC)c1	2.1	0.65	0.4	3.8	3.0	i	nt
CC(C)(C)c1ccc(S(=O)(=O)N2CCC(O)(c3ccc(Cl)cc3)CC2)cc1	3.7	0.67	-4.9	-7.0	-3.2	i	0%
CCC/S(C)=N/S(=O)(=O)c1ccc(C)cc1 (stereo not given)	-1.1	0.71	-2.1	0.1	3.6	i	nt
ClC1=C(Cl)C(Cl)=C(Cl)C1=C/C=C/c1ccccc1	0.4	0.74	3.2	9.4	-2.9	i	-7%
Cc1cc(NCCN(C)C)n2nc(-c3cccs3)cc2n1	-27	0.66	4.1	nt	17*	nt	-4%
COc1ccc(C(=O)Nc2ccc(CN3CCOCC3)cc2)cc1	0.8	0.71	1.7	nt	0.0	nt	-1%
Cc1ccccc1C(=O)Nc1nnc(S(=O)(=O)N2CCCCC2)s1	-0.7	0.74	-3.2	4.8	-0.6	+	nt
Cc1cc(C)cc(N2C(=O)CC(N(C(=O)c3ccco3)c3cc(C)cc(C)c3)C2=O)c1 (stereo not given)	2.2	0.7	-0.4	nt	1.2	nt	?
CCCc1cc(C(=O)NNC(=S)NC2CCCCC2)cs1	1.8	0.68	1.0	-1.2	-1.6	i	nt
Cc1occc1C(=O)N1CCCc2ccccc21	0.1	0.64	0.8	nt	-1.6	nt	?
COc1ccc(/C=N/NC(=O)c2ccccc2O)cc1Cn1nnc2ccccc21	nt	nt	-1.3	-1.6	2.7	i	4%
Cc1nnsc1C(=O)Nc1ccccc1	4.6	0.71	0.2	nt	-2.7	nt	-4%
CC1=CC(=O)N(c2cccc(C(F)(F)F)c2)C1c1ccc(Cl)cc1 (stereo not given)	-0.1	0.72	4.0	nt	0.1	nt	5%
COc1ccc(OC)c(C2C(C#N)=C(N)N(N(C)C)C3=C2C(=O)CC(C)(C)C3)c1 (stereo not given)	4.9	0.67	-2.0	-1.2	-2.2	i	nt
O=C(Nc1ccc2c(c1)C(=O)c1ccccc1-2)c1ccccc1	6.7	0.72	-7.2	-1.6	nt	i	4%
COc1ccc(NS(=O)(=O)/C=C/c2ccc(OC)c(OC)c2)cc1	-0.9	0.68	-7.0	0.2	-1.9	nt	11%
O=C(Nc1ccc(Oc2ccccc2)cc1)C1CC1	4.1	0.7	-3.3	-0.3	-1.3	i	-2%
Nc1c(C(=O)CSc2n[nH]c(-c3ccccc3)n2)c(=O)[nH]c(=O)n1C1CC1	4.2	0.7	-0.2	6.3	nt	i	3%
CCOc1ccc(N(CC(=O)N2CCN(c3ccccc3OC)CC2)S(=O)(=O)c2ccc(C)cc2)cc1	4.9	0.73	-1.4	1.4	0.1	i	nt
O=S(=O)(Nc1cccc(-c2nc3cccnc3s2)c1)c1ccc2c(c1)OCCO2	5.4	0.78	0.1	-2.7	-1.6	i	24%
Cc1cccc(NC(=O)CSc2nc(N)c(NC(=O)c3cccs3)c(=O)[nH]2)c1C	3.2	0.79	1.7	1.8	2.1	i	-3%
CN(C)CCCNCCCNC(=O)c1ccccn1	0.2	0.73	-4.5	nt	-1.8	nt	?

Whole records, quoted from the list. Values in the order: UCH37 DUB inh	E coli growth	HNF4A DNA FP	AF4-AF9 inh	RanGTP-Impb inh	FGF22 binding	Vif A3G
Profile of `COc1ccc(/C=N/NC(=O)c2ccccc2O)cc1Cn1nnc2ccccc21` → nt	nt	-1.3	-1.6	2.7	i	4%
Profile of `CCOc1ccc(N(CC(=O)N2CCN(c3ccccc3OC)CC2)S(=O)(=O)c2ccc(C)cc2)cc1` → 4.9	0.73	-1.4	1.4	0.1	i	nt

(cont.)
SMILES	UCH37 DUB inh	E coli growth	HNF4A DNA FP	AF4-AF9 inh	RanGTP-Impb inh	FGF22 binding	Vif A3G
COc1ccccc1NC(=O)c1ccc(CSc2ccccc2)o1	1.7	0.68	-2.8	-0.8	4.5	i	nt
COC(=O)[C@]12CCCCC=C1N(Cc1ccco1)C(=O)[C@H](CC(=O)N1CCN(C(=O)c3ccco3)CC1)C2	nt	nt	2.7	-0.8	nt	i	nt
COc1ccc(S(=O)(=O)n2cccc2)c(OC)c1	1.8	0.66	-0.8	-12	-1.4	i	nt
O=C(Nc1ccc(C(=O)N2CCOCC2)cc1)C1CC1	nt	nt	-3.9	1.9	nt	i	7%
C(=N\NC1=NCCN1)/c1ccncc1	nt	nt	0.1	2.9	-6.7	i	nt
CC(NC(=O)c1ccc(F)cc1)c1ccc2c(c1)CCCC2 (stereo not given)	-2.8	0.72	-2.2	nt	?	nt	-3%
CCCCNC(=O)c1ccc2c(c1)S(=O)(=O)c1ccccc1C2=O	0.2	0.69	-2.3	2.6	-2.2	i	9%
O=C(COC(=O)c1cccnc1Cl)Nc1ccc(N2CCCCC2)cc1	1.4	0.68	-2.4	7.1	nt	i	nt
C=CCOc1ccccc1CNc1ccc2[nH]c(=O)[nH]c2c1	-1.9	0.71	-2.1	11	6.0	i	18%
Cc1c(C(=O)C(=O)NCC2CCCO2)c2ccccc2n1C (stereo not given)	4.8	0.7	2.0	-0.9	3.6	i	nt
CC(=O)N1c2ccc(S(=O)(=O)N3CCCC3C(=O)NCc3ccc(Cl)cc3)cc2CC1C (stereo not given)	1.4	0.72	1.9	1.7	3.0	i	2%
COc1ccc(/C=C/C(=O)Nc2ccccc2)cc1S(=O)(=O)N1CCOCC1	7.0	0.7	1.1	12	1.1	i	0%
CC(C)NC(=O)COc1ccc(Cl)cc1Cl	4.0	0.71	2.1	nt	0.2	nt	-3%
CCOc1ccc(N(C)S(=O)(=O)c2c[nH]c(C(=O)OC)c2)cc1	6.2	0.72	-2.0	0.7	-0.8	i	0%
COc1ccc(NC(=O)NCc2cccnc2)c(OC)c1	0.6	0.7	3.0	-0.6	-0.2	i	0%
O=C(CN1C(=O)c2ccccc2C1=O)Nc1ccc(-c2nc3ccccc3o2)cc1	-4.6	0.73	1.4	nt	-6.1	nt	3%
COc1ccc(CCNC(=O)c2ccc(NC(=O)CC3SC(N4CCCCC4)=NC3=O)cc2)cc1OC (stereo not given)	4.0	0.68	-3.1	-5.4	nt	i	nt
COc1cccc(CNC(=O)CCC2CCCN(C3CCOCC3)C2)c1 (stereo not given)	1.1	0.67	0.1	nt	0.8	nt	nt
COC(=O)c1ccc(NC(C)C(=O)OC)c([N+](=O)[O-])c1 (stereo not given)	1.6	0.64	-1.4	nt	-0.7	nt	nt
O=C(Nc1ccc(N2C(=O)C3CCCCC3C2=O)cc1Cl)c1cccs1 (stereo not given)	1.6	0.67	-0.3	-1.3	-1.3	i	0%
O=c1oc(/C=C/c2ccccc2)nc2sc3c(c12)CCC3	-6.2	0.76	47*	nt	3.4	nt	70%
CCN(Cc1ccncc1)C(=S)Nc1ccccc1	2.6	0.67	2.0	0.4	5.4	i	4%
COCCNc1oc(/C=C/c2cccc(OC)c2)nc1S(=O)(=O)c1ccccc1	nt	nt	-10	-1.5	nt	i	-5%
